CBX7 inh = inhibitors of human CBX7 binding to H3K27me3 peptide. O95931. AlphaScreen His6-CBX7 / biotin-H3K27me3 peptide binding; hits give low values. normalised signal (fraction of DMSO) (concentration not given with the values). 66,000 tested, 1.1% active. AID 1224903; in the data active = normalised signal below about 0.5;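 also: 100 nL library stock added to about 20 µL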
Target sequence (O95931 whole entry, looked up): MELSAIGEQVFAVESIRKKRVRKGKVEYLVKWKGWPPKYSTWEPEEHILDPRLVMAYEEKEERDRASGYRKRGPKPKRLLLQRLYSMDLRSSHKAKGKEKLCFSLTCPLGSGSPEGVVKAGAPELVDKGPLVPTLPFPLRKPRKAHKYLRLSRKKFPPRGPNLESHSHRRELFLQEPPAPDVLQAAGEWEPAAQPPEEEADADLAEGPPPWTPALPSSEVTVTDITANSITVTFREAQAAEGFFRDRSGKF
CBX7 inh z-score = also measured in CBX7 inh; calls as there; z-score; measured here: z-score of CBX7 signal; some inactives read as strong as hits; reference of the scale not given here;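 same signal on another scale; lower means less binding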
An asterisk follows results filed as active.

SMILES | CBX7 inh z-score | CBX7 inh
O=C(Cn1ncc2c1-c1ccccc1OC2)NCC1(c2ccccc2)CCCC1 | -0.36 | 0.99
COc1ccccc1N1CCN(c2nc(-c3ccccc3F)nc3ccccc23)CC1 | -3.5 | 0.87
O=C(Cn1ccc2ccccc2c1=O)NCCCN1CCOCC1 | 1.8 | 1.2
Cc1ccc(Nc2ncc(C(=O)N(C)Cc3ccccc3)c3ccccc23)cc1Cl | 8.1 | 1.3
CCC(C)NC(=O)CCC(=O)Nc1ccc2nc(N3CCN(C)CC3)cc(C)c2c1 (configuration not stated) | 0.84 | 1
CC(=O)N1CCc2cc(S(=O)(=O)Nc3cccc(F)c3)ccc21 | 0.36 | 1
COc1ccccc1N1CCN(c2nc(-c3cccs3)cc(C(F)(F)F)n2)CC1 | 0.54 | 1.1
COc1ccc(NC(=O)c2csc3c2CCCCC3)cc1 | 1.6 | 1
Clc1ccc(-c2[nH]c(-c3ccc(C#Cc4ccccc4)cc3)nc2-c2ccccc2)cc1 | -0.027 | 0.97
Cc1ccc2nc(-c3ccc(NC(=O)C(C)(C)C)cc3)sc2c1 | 1.8 | 1
CC1(C)CC(=O)c2cc(C(N)=O)c(=O)n(-c3ccc(Cl)cc3)c2C1 | -0.52 | 0.98
OCCCNc1nc(-c2ccccc2)c2cc(Br)ccc2n1 | 5.3 | 1.2
CC1CCCCC1NC(=O)c1ccc2c(c1)N(Cc1ccccc1)C(=O)c1ccccc1S2=O (configuration not stated) | -1.9 | 0.92
COc1ccc(Cn2c(CCC(=O)Nc3ccc(C)cc3)nc3cccnc32)cc1 | -1.8 | 0.9
CC(=O)Nc1nc(C)c(-c2csc(Nc3ccc(Br)cc3)n2)s1 | -0.098 | 0.96
Cc1ccc(C(=O)Nc2c(C(=O)Nc3ccc(F)cc3)oc3ccccc23)cc1 | 0.22 | 1
COc1cccc(Nc2ncccc2C(=O)Nc2cccc(C(F)(F)F)c2)c1 | 0.12 | 1
CCOC(=O)c1cnc2c(C)cc(Cl)cc2c1Nc1cccc(C(F)(F)F)c1 | 0.49 | 1.1
CCOC(=O)c1sc2ncnc(NCc3ccc(F)cc3)c2c1C | 3.6 | 1.1
COc1cc(OC)cc(-c2cc(NC(C)=O)n[nH]2)c1 | -0.57 | 0.95
Cc1ccc(S(=O)(=O)C2(C(=O)Nc3cccc(C)c3C)CC2)cc1 | 2.9 | 1.1
CCOC(=O)N1CCC(Nc2c(N(C)C3CCCCC3)c(=O)c2=O)CC1 | 0.33 | 1
Cc1ccc(CN2C(=O)CSc3ccc(C(=O)NCCc4ccccc4)cc32)cc1 | -1.7 | 0.92
O=C1CCc2cc(S(=O)(=O)N3CCN(Cc4ccc5c(c4)OCO5)CC3)ccc2N1 | -1.1 | 0.97
Cc1cc(C)c(OCC(=O)N(Cc2cccs2)C2CCS(=O)(=O)C2)c(C)c1 (configuration not stated) | 1.5 | 1.2
Cc1ccc(S(=O)(=O)c2cn(CC(=O)Nc3ccccc3C)c3ccc(F)cc3c2=O)cc1 | -0.54 | 0.96
Cn1nc(-c2ccccc2F)c2cc(C(=O)NCc3ccc(Cl)cc3)sc21 | 0.46 | 1.1
CC(=O)N1c2ccc(S(=O)(=O)N3CCN(c4ccccc4)CC3)cc2CC1C (configuration not stated) | 0.45 | 1
Cc1cc(NC2c3ccccc3C(=O)N2c2ccccc2C)ccc1Br (configuration not stated) | 0.46 | 1
COC(=O)c1ccc(C(=O)Nc2ccccc2-c2nc3ccccc3[nH]2)cc1 | 0.06 | 1.1
CCn1c(SCC(=O)Nc2ccc(OC)cc2)nnc1-c1cccnc1 | -0.22 | 0.99
Cc1ccc2c(c1)N(CCC(=O)NCc1cccnc1)C(=O)C(C)O2 (configuration not stated) | -1.3 | 0.9
COc1ccc(NC(=O)C(NC(=O)CC2NC(=O)NC2=O)c2ccccc2)cc1 (configuration not stated) | -0.7 | 0.97
O=C(CN1C(=O)COc2ccccc21)NCc1cccnc1 | 0.15 | 1
O=C(O)c1ccc(CSc2nc3ccccc3o2)cc1 | 0.7 | 1.2
CCc1ccccc1NC(=O)Nc1cc2sccc2n1C | -2 | 0.95
CCOC(=O)c1c(NC(C)=O)sc(CC)c1-c1ccccc1 | 2.5 | 1.1
CC12CCC(C(=O)N3CCCc4ccccc43)(CC1=O)C2(C)C (configuration not stated) | -0.09 | 1
COc1ccc(-c2cc(C(F)(F)F)n3nc(C(=O)N4CCCCC4)c(Cl)c3n2)cc1OC | 3.3 | 1.1
Cc1ccc2cc(CCNC(=O)c3cccc(F)c3)c(=O)[nH]c2c1 | 0.36 | 1
CC(=O)c1cccc(Nc2nc(-c3c(C)nc4ccccn34)cs2)c1 | 0.21 | 1
O=C(Nc1cccc(-c2nc3ncccc3o2)c1)c1cccc(OCc2ccccc2)c1 | 1 | 1.1
c1ccc(Nc2nc(-c3cc4ccccc4o3)cs2)cc1 | -2.1 | 0.92
O=C(CSc1nnc(C2COc3ccccc3O2)o1)N1CCc2ccccc21 (configuration not stated) | 0.98 | 1
COCCn1c(CN2CCOCC2)nc2c1c(=O)[nH]c(=O)n2C | 2.3 | 1.1
COc1ccc(C(=O)c2cn(Cc3ccccc3)c3cc(OC)c(OC)cc3c2=O)cc1 | -0.64 | 0.82
COc1ccc(C(C(=O)NC2CCCCC2)N2CC(C)CC(C)C2)cc1 (configuration not stated) | -3.3 | 0.87
Cn1ccnc1SCC(=O)Nc1ccc(S(N)(=O)=O)cc1 | 0.24 | 1
CCC1=Nc2cc(C(=O)O)ccc2Sc2ccc(C)cc21 | 0.13 | 1
O=C(NCCN1CCN(Cc2ccccc2)CC1)c1cc2c(s1)-c1ccccc1OC2 | 5 | 1.2
CCOC(=O)C1CCN(c2c(N3CC(C)CC(C)C3)c(=O)c2=O)CC1 (configuration not stated) | 1.6 | 1.2
CCOc1ccc(C2CC(=O)N2C2(C(=O)Nc3ccc(C)cc3)CCCCC2)cc1OC (configuration not stated) | -0.49 | 0.97
c1cnc2sc(N3CCN(C4CCCCC4)CC3)nc2c1 | -0.33 | 0.99
COc1ccc(C(=O)Nc2ccc(Cl)c(-c3nc4ccccc4o3)c2)cc1 | -0.064 | 1
CC(C)NCC(O)Cn1c2c(c3ccccc31)CCCC2=O (configuration not stated) | -0.2 | 0.99
COc1ccc(CN(C(=O)COc2ccc(Cl)cc2C)C2CCS(=O)(=O)C2)cc1OC (configuration not stated) | 0.32 | 1
CN1C(=O)CSc2ccc(NC(=O)Nc3ccc(Cc4ccncc4)cc3)cc21 | 0.017 | 1
COc1ccccc1-c1cc(C(F)(F)F)nc(NCc2cccs2)n1 | 2.1 | 1.3
O=C1CSC(c2cccc(Cl)c2Cl)N1c1cccc(F)c1 (configuration not stated) | 1.2 | 1
O=C(COc1nsnc1N1CCOCC1)Nc1cccc(Br)c1 | 1 | 1.1

Record cards, as listed above. Screens in order: CBX7 inh z-score, CBX7 inh
Results for CC(C)NCC(O)Cn1c2c(c3ccccc31)CCCC2=O (configuration not stated) : -0.2, 0.99
Results for c1cnc2sc(N3CCN(C4CCCCC4)CC3)nc2c1 : -0.33, 0.99
Results for COc1ccc(C(=O)Nc2ccc(Cl)c(-c3nc4ccccc4o3)c2)cc1 : -0.064, 1

The list continues:
SMILES | CBX7 inh z-score | CBX7 inh
COc1ccc(NC(=O)Cn2cc(S(=O)(=O)c3ccccc3)c(=O)c3cc(C)ccc32)cc1 | -2.5 | 0.82
Cc1ccc2nc(Sc3cccc(Cl)c3)[nH]c2c1 | 2.4 | 1.1
COc1ccc(NC(=O)c2sc3nc(C)nc(N4CCN(C)CC4)c3c2C)cc1Cl | -0.066 | 1
Cc1ccc(-c2noc(CCC(=O)Nc3nc4ccccc4s3)n2)cc1 | 0.15 | 1.1
Cc1ccc2nc(SCCCCOc3ccc(Cl)cc3)[nH]c2c1 | 3.4 | 1.1
Cc1oc(-c2cccc(Br)c2)nc1CN1CCC(C(=O)NCCc2ccccc2)CC1 | -0.21 | 0.85
COc1ccc(CNC(=O)C2CCN(C(=O)N(C)C)CC2)cc1 | 1.6 | 1
CC1(C)CC(=O)N(CC(=O)NC2CC2)c2ccccc2S1 | 1.1 | 1
O=C(Cn1c(SCc2cccc(F)c2)nc2ccncc21)N1CCCCCC1 | 0.35 | 1
COc1ccccc1C(O)(C(=O)NCc1ccccc1)c1ccccc1OC | 0.45 | 1.1
O=C(NCc1ccc(F)cc1)C1CCN(C(=O)c2cnn(-c3ccccc3)c2-n2cccc2)CC1 | 1.9 | 1.2
CN1CCN(c2nc(-c3ccc(C(C)(C)C)cc3)nc3ccccc23)CC1 | 0.23 | 1
Cc1ccccc1-n1cnc2cc(Nc3nnc(C)c4ccccc34)ccc21 | -6.5 | 0.7
O=C(Cn1ccc2ccccc2c1=O)N1CCC(Cc2ccccc2)CC1 | 0.32 | 1
Cc1nc2sc(C(c3cccs3)N3CCc4ccccc4C3)c(O)n2n1 (configuration not stated) | -2.3 | 0.95
O=C(c1cc2c(s1)-c1ccccc1OC2)N1CCN(c2ncccn2)CC1 | 2.6 | 1.1
CCOC(=O)c1cnc2c(C(F)(F)F)cccc2c1Nc1ccc(OC)cc1OC | -1.6 | 0.95
CCN(CC)CCOC(=O)c1ccc(NC(=O)c2cc3c(s2)-c2ccccc2OC3)cc1 | 15 | 1.6
COc1ccccc1NC(=O)Nc1nnc(N(CC(C)C)CC(C)C)s1 | -1.3 | 0.66
CC(NC(=O)C(=O)N1CCCCC1)C(c1cccs1)N1CCOCC1 (configuration not stated) | -0.88 | 0.96
CCc1ccc(-c2ncccc2O)cc1 | 0.79 | 1
Clc1ccc(-c2csc(Nc3ccc(-c4ccccc4)cc3)n2)cc1Cl | -0.19 | 0.99
CCCSCCCNC(=O)C1CCN(c2nc3ccccc3[nH]2)CC1 | -0.54 | 0.96
Cc1ccc(S(=O)(=O)NCCSc2nnnn2-c2ccc(C(N)=O)cc2)cc1 | 0.95 | 1.1
O=C(NCc1ccc(F)cc1)C1CCN(C(=O)c2sccc2-n2cccc2)CC1 | -0.34 | 0.99
Cc1cc(NS(=O)(=O)c2ccc3[nH]c(=O)c(=O)[nH]c3c2)ccc1Br | -1.5 | 0.93
Cc1cccc(-c2noc(Cc3ccc(Cl)cc3)n2)c1 | 13 | 1.4
Cc1ccc2oc(-c3ccc(NC(=O)c4ccc(C)c(C)c4)cc3)nc2c1 | 0.44 | 1
CCOC(=O)C1CCCN(c2c(NCCc3ccc(S(N)(=O)=O)cc3)c(=O)c2=O)C1 (configuration not stated) | -0.18 | 0.99
Cc1ccc2oc(-c3ccc(NC(=O)c4ccc(Cl)cc4Cl)cc3)nc2c1 | 1.2 | 1.2

A section from further up, for reference:
SMILES | CBX7 inh z-score | CBX7 inh
Cc1ccccc1-n1cnc2cc(Nc3nnc(C)c4ccccc34)ccc21 | -6.5 | 0.7
O=C(Cn1ccc2ccccc2c1=O)N1CCC(Cc2ccccc2)CC1 | 0.32 | 1

New compounds follow.
SMILES | CBX7 inh z-score | CBX7 inh
CCOc1ccccc1N1C(=O)CC(Nc2ccccc2)C1=O (configuration not stated) | 0.83 | 1.2
CCc1ccc(NC(=O)NCC2CCN(c3ccc(OC)cc3)C2)cc1 (configuration not stated) | -1 | 0.9
CC1CCCCN1S(=O)(=O)c1ccc(C(=O)Nc2cccc(-c3nc4ccccc4[nH]3)c2)cc1 (configuration not stated) | -1.7 | 0.93
O=C(C1CC1)N1CCc2cc(S(=O)(=O)N3CCN(c4ccccc4F)CC3)ccc21 | -0.49 | 0.98
CCOc1ccc(-c2csc(NC(=O)COc3ccc(C)cc3C)n2)cc1 | 2.4 | 1.1
O=C(CS(=O)(=O)c1nc(-c2ccc3c(c2)OCO3)cn1-c1ccccc1)Nc1cccc(F)c1 | -2.4 | 0.94
CCN(CC)c1cc(C)c2cc(NC(=O)c3cc(Br)ccc3Cl)ccc2n1 | -1.6 | 0.85
CCc1ccc(Nc2cc(C)c3ccc(O)cc3n2)cc1 | -3.2 | 0.88
CSCC[C@@H](C(=O)Nc1ccc2c(c1)OCO2)N1Cc2ccccc2C1=O | -1.1 | 0.62
C=CCN(c1ccccc1)S(=O)(=O)c1ccc2[nH]cc(C(=O)N(CC)CC)c(=O)c2c1 | 1.7 | 1.1
CCOC(=O)C1CCCN(c2c(N3CCN(c4cc(C)ccc4C)CC3)c(=O)c2=O)C1 (configuration not stated) | 3.2 | 1.1
Cc1ccc2oc(-c3ccc(C)c(NC(=O)c4ccc(Cl)cc4Cl)c3)nc2c1 | -0.83 | 0.93
COc1ccc(Nc2cc(C)c3c(O)cccc3n2)cc1 | -1.9 | 0.9
O=C(NCCC1=CCCCC1)C1CCN(C(=O)c2cc3sccc3n2Cc2ccc(F)cc2)CC1 | -0.32 | 0.99
Cc1cccc(CCNS(=O)(=O)c2ccc3c(c2)CCN3C(=O)CCC(=O)O)c1 | -1.8 | 0.89
Cc1oc(-c2cccc(Cl)c2)nc1CN1CCCC(C(=O)O)C1 (configuration not stated) | -1.7 | 0.96
Cc1cc(C)nc(SCC(=O)c2nonc2C)n1 | -1.1 | 0.91
COc1ccccc1CNC(=O)CN1C(=O)CSc2ncccc21 | 0.16 | 1
CCc1ccc2oc(-c3ccc(NC(=O)c4cccnc4Cl)cc3)nc2c1 | -0.45 | 0.97
COc1cccc(NC(=O)CSc2nc3nc(C)c(Cc4cccc(C)c4)c(C)n3n2)c1 | 1.2 | 1
CC(C)Cn1c(/C=C/c2ccc(Cl)cc2)nc2ccccc21 | 49 | 2
Cc1cc(NC(=O)c2cc(-c3ccc(OC(C)C)cc3)nc3ccccc23)no1 | 0.0073 | 1
CC1CCCC(NC(=O)c2ccc3nc(N4CCOCC4)sc3c2)C1C (configuration not stated) | 0.83 | 1

Taken from above.
`CCOC(=O)C1CCCN(c2c(N3CCN(c4cc(C)ccc4C)CC3)c(=O)c2=O)C1` (configuration not stated) in CBX7 inh reads 1.1
`Cc1cc(NC(=O)c2cc(-c3ccc(OC(C)C)cc3)nc3ccccc23)no1` in CBX7 inh z-score reads 0.0073
`CC1CCCCN1S(=O)(=O)c1ccc(C(=O)Nc2cccc(-c3nc4ccccc4[nH]3)c2)cc1` (configuration not stated) in CBX7 inh z-score reads -1.7

Assay outcomes deposited in PubChem by several laboratories.

These rows are one share of the data. The share of hits here may be higher or lower than overall.
